# A1 apoptosis 2: compounds inhibiting A1, read as caspase activation | MEF A1-2A-BIM cells, caspase-Glo luminescence, 3 h; percent of clofoctol response, DMSO zero | caspase activation, % (concentration not given with the values) | 24,000 tested, under 10 active | AID 2465; in the data active = caspase activation above about 5.9%;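 note: wells of about 30 µL received 50 nL stock; the first replicate is given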
#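 Material: A1-2A-BIM-expressing MEF cells. Buffer or medium: RPMI-1640 plus 10% FBS. Incubation: cells settled overnight, compound exposure 3 h at 37 °C, 5% CO2. Signal: Caspase-Glo 3/7 luminescence, 1 h at room temperature.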
# * marks the source's active call; other numbers are inactive results. Some of the compounds tested. The share of hits here may be higher or lower than overall.
Molecule	A1 apoptosis 2
O=C1O[C@@H](c2ccccc2)[C@@H](c2ccccc2)N2[C@@H](c3ccc(OCCO)cc3)[C@]3(C(=O)Nc4ccc(C#CCCO)cc43)[C@@H](C(=O)O)[C@H]12	-1.1
C[C@@H]1CN([C@@H](C)CO)C(=O)Cc2cc(NC(=O)C3CC3)ccc2O[C@@H]1CN(C)CC1CCCCC1	0.8
C[C@H](CO)N1C[C@H](C)[C@@H](CN(C)C(=O)Nc2ccc(F)cc2)Oc2ccc(NS(C)(=O)=O)cc2C1=O	0.3
C[C@H]1CN([C@@H](C)CO)C(=O)Cc2cc(NC(=O)C3CC3)ccc2O[C@@H]1CN(C)Cc1ccc2c(c1)OCO2	-0.8
Cc1cc(C(=O)Nc2cccc3c2O[C@H](CN(C)Cc2ccc(C(=O)Nc4ccccc4N)cc2)[C@H](C)CN([C@H](C)CO)C3=O)n(C)n1	-1.2
C[C@H](CO)N1C[C@H](C)[C@H](CN(C)C(=O)C2CCCCC2)OCCCC[C@H](C)Oc2ccc(NC(=O)c3ccncc3)cc2C1=O	-0.3
C[C@@H]1CN([C@H](C)CO)C(=O)c2cc(NC(=O)Nc3ccc(C(F)(F)F)cc3)ccc2O[C@@H](C)CCCCO[C@H]1CN(C)Cc1ccc(Cl)c(Cl)c1	-0.1
COc1ccc(S(=O)(=O)Nc2ccc3c(c2)C(=O)N([C@H](C)CO)C[C@@H](C)[C@H](CN(C)Cc2ccncc2)OCCCC[C@H](C)O3)cc1	0.3
C[C@H]1CN([C@@H](C)CO)C(=O)c2cccc(NC(=O)c3ccncc3)c2O[C@@H]1CN(C)CC1CCCCC1	0.0
CNC[C@@H]1Oc2c(NS(=O)(=O)c3ccccc3)cccc2C(=O)N([C@@H](C)CO)C[C@@H]1C	-1.2

# Next entries
Molecule	A1 apoptosis 2
Cc1ccc(S(=O)(=O)Nc2ccc3c(c2)C(=O)N([C@H](C)CO)C[C@@H](C)[C@H](CN(C)S(=O)(=O)c2ccc(Cl)cc2)OCCCC[C@@H](C)O3)cc1	0.4
CC(C)NC(=O)N(C)C[C@H]1Oc2ccc(NC(=O)C3CC3)cc2C(=O)N([C@H](C)CO)C[C@@H]1C	0.0
C[C@@H]1CN([C@@H](C)CO)C(=O)c2cc(NC(=O)c3ccncc3)ccc2O[C@@H](C)CCCCO[C@H]1CN(C)C(=O)CCCN(C)C	-0.6
COc1ccc(CN(C)C[C@@H]2Oc3c(NC(=O)NC(C)C)cccc3C(=O)N([C@@H](C)CO)C[C@@H]2C)cc1	0.2
Cc1noc(C)c1NC(=O)N(C)C[C@H]1Oc2c(NC(=O)NC3CCCCC3)cccc2C(=O)N([C@H](C)CO)C[C@@H]1C	-0.3
COc1ccc(NC(=O)N(C)C[C@@H]2Oc3ccc(N(C)C)cc3CC(=O)N([C@@H](C)CO)C[C@@H]2C)cc1	0.0
CC(C)NC(=O)N(C)C[C@@H]1Oc2c(NC(=O)Nc3ccc4c(c3)OCO4)cccc2C(=O)N([C@H](C)CO)C[C@@H]1C	0.7
C[C@H]1CCCCO[C@H](CN(C)C(=O)CCCN(C)C)[C@@H](C)CN([C@@H](C)CO)C(=O)c2cc(N(C)C)ccc2O1	-1.5
C[C@@H]1CCCCO[C@@H](CN(C)C(=O)CCCN(C)C)[C@H](C)CN([C@H](C)CO)C(=O)c2cc(NC(=O)CCCN(C)C)ccc2O1	-0.5
CNC[C@@H]1Oc2ccc(NS(=O)(=O)c3c(C)noc3C)cc2C(=O)N([C@H](C)CO)C[C@H]1C	-0.4

# New compounds follow
Molecule	A1 apoptosis 2
C[C@@H]1CCCCO[C@@H](CN(C)Cc2ccc(Cl)c(Cl)c2)[C@H](C)CN([C@H](C)CO)C(=O)c2cc(NC(=O)Nc3cccc4ccccc34)ccc2O1	1.9
C[C@H]1CN([C@@H](C)CO)C(=O)Cc2cc(NC(=O)c3ccncc3)ccc2O[C@H]1CN(C)C(=O)Nc1ccc(C(F)(F)F)cc1	-0.2
C[C@H](CO)N1C[C@H](C)[C@@H](CN(C)Cc2ccc(Cl)c(Cl)c2)Oc2ccc(NC(=O)Cn3cnnn3)cc2C1=O	0.4
C[C@H](CO)N1C[C@H](C)[C@@H](CN(C)C(=O)Nc2ccc(C(F)(F)F)cc2)OCCCC[C@H](C)Oc2ccc(NS(=O)(=O)c3ccc(Cl)cc3)cc2C1=O	-1.6
CC(C)NC(=O)Nc1ccc2c(c1)C(=O)N([C@@H](C)CO)C[C@@H](C)[C@@H](CN(C)C(=O)NC1CCCCC1)OCCCC[C@H](C)O2	-0.1
COc1ccc(S(=O)(=O)N(C)C[C@@H]2OCCCC[C@@H](C)Oc3ccc(NC(=O)Cc4ccccc4)cc3C(=O)N([C@H](C)CO)C[C@@H]2C)cc1	0.4
C[C@@H]1CN([C@@H](C)CO)C(=O)c2cccc(N(C)C)c2O[C@H]1CN(C)Cc1ccncc1	-0.5
C[C@H]1CN([C@@H](C)CO)C(=O)CCCn2cc(nn2)CO[C@H]1CN(C)S(=O)(=O)c1ccc(-c2ccccc2)cc1	-0.1
C[C@@H]1CCCCO[C@@H](CN(C)C(=O)CCCN(C)C)[C@H](C)CN([C@H](C)CO)C(=O)c2cc(NC(=O)Nc3ccc4c(c3)OCO4)ccc2O1	0.4
C[C@@H]1CCCCO[C@@H](CN(C)Cc2ccc(Cl)c(Cl)c2)[C@@H](C)CN([C@H](C)CO)C(=O)c2cc(NS(=O)(=O)c3cccs3)ccc2O1	-0.9

# For reference, part of the list above.
Molecule	A1 apoptosis 2
CC(C)NC(=O)N(C)C[C@H]1Oc2ccc(NC(=O)C3CC3)cc2C(=O)N([C@H](C)CO)C[C@@H]1C	0.0
C[C@@H]1CN([C@@H](C)CO)C(=O)c2cc(NC(=O)c3ccncc3)ccc2O[C@@H](C)CCCCO[C@H]1CN(C)C(=O)CCCN(C)C	-0.6
COc1ccc(CN(C)C[C@@H]2Oc3c(NC(=O)NC(C)C)cccc3C(=O)N([C@@H](C)CO)C[C@@H]2C)cc1	0.2
Cc1noc(C)c1NC(=O)N(C)C[C@H]1Oc2c(NC(=O)NC3CCCCC3)cccc2C(=O)N([C@H](C)CO)C[C@@H]1C	-0.3
COc1ccc(NC(=O)N(C)C[C@@H]2Oc3ccc(N(C)C)cc3CC(=O)N([C@@H](C)CO)C[C@@H]2C)cc1	0.0
CC(C)NC(=O)N(C)C[C@@H]1Oc2c(NC(=O)Nc3ccc4c(c3)OCO4)cccc2C(=O)N([C@H](C)CO)C[C@@H]1C	0.7
C[C@H]1CCCCO[C@H](CN(C)C(=O)CCCN(C)C)[C@@H](C)CN([C@@H](C)CO)C(=O)c2cc(N(C)C)ccc2O1	-1.5
C[C@@H]1CCCCO[C@@H](CN(C)C(=O)CCCN(C)C)[C@H](C)CN([C@H](C)CO)C(=O)c2cc(NC(=O)CCCN(C)C)ccc2O1	-0.5
CNC[C@@H]1Oc2ccc(NS(=O)(=O)c3c(C)noc3C)cc2C(=O)N([C@H](C)CO)C[C@H]1C	-0.4
C[C@@H]1CCCCO[C@@H](CN(C)Cc2ccc(Cl)c(Cl)c2)[C@H](C)CN([C@H](C)CO)C(=O)c2cc(NC(=O)Nc3cccc4ccccc34)ccc2O1	1.9
C[C@H]1CN([C@@H](C)CO)C(=O)Cc2cc(NC(=O)c3ccncc3)ccc2O[C@H]1CN(C)C(=O)Nc1ccc(C(F)(F)F)cc1	-0.2
C[C@H](CO)N1C[C@H](C)[C@@H](CN(C)Cc2ccc(Cl)c(Cl)c2)Oc2ccc(NC(=O)Cn3cnnn3)cc2C1=O	0.4
C[C@H](CO)N1C[C@H](C)[C@@H](CN(C)C(=O)Nc2ccc(C(F)(F)F)cc2)OCCCC[C@H](C)Oc2ccc(NS(=O)(=O)c3ccc(Cl)cc3)cc2C1=O	-1.6
CC(C)NC(=O)Nc1ccc2c(c1)C(=O)N([C@@H](C)CO)C[C@@H](C)[C@@H](CN(C)C(=O)NC1CCCCC1)OCCCC[C@H](C)O2	-0.1
COc1ccc(S(=O)(=O)N(C)C[C@@H]2OCCCC[C@@H](C)Oc3ccc(NC(=O)Cc4ccccc4)cc3C(=O)N([C@H](C)CO)C[C@@H]2C)cc1	0.4
C[C@@H]1CN([C@@H](C)CO)C(=O)c2cccc(N(C)C)c2O[C@H]1CN(C)Cc1ccncc1	-0.5

# (continued)
Molecule	A1 apoptosis 2
CC(C)(C)OC(=O)CC[C@]12N=C(c3ccc(OCCCO)cc3)O[C@H]1c1ccccc1CN(Cc1ccccc1)C2=O	-0.6
CNC[C@@H]1Oc2c(NC(=O)Nc3ccccc3)cccc2C(=O)N([C@@H](C)CO)C[C@@H]1C	0.4
C[C@@H]1CCCCO[C@@H](CN(C)Cc2ccc(C(F)(F)F)cc2)[C@H](C)CN([C@@H](C)CO)C(=O)c2cc(NC(=O)Nc3ccc(F)cc3)ccc2O1	-1.8
Cc1ccc(S(=O)(=O)N(C)C[C@@H]2OCCCC[C@@H](C)Oc3ccc(NS(=O)(=O)c4ccc(F)cc4)cc3C(=O)N([C@@H](C)CO)C[C@H]2C)cc1	0.1
C[C@@H]1CN([C@H](C)CO)C(=O)Cc2cc(NS(=O)(=O)c3ccc(F)cc3)ccc2O[C@@H]1CN(C)Cc1ccc(C(=O)O)cc1	-0.8
C[C@@H]1CN([C@@H](C)CO)C(=O)c2cc(NC(=O)CCCN(C)C)ccc2O[C@@H]1CN(C)Cc1ccc2c(c1)OCO2	0.2
C[C@H](CO)N1C[C@H](C)[C@@H](CN(C)S(=O)(=O)c2cn(C)cn2)OCCCC[C@H](C)Oc2ccc(NC(=O)c3ccncc3)cc2C1=O	0.1
C[C@@H]1CN([C@H](C)CO)C(=O)Cc2cc(NC(=O)Nc3ccc(C(F)(F)F)cc3)ccc2O[C@@H]1CN(C)C(=O)NC1CCCCC1	0.3
C[C@H](CO)N1C[C@H](C)[C@H](CN(C)CC2CCCCC2)OCCCC[C@H](C)Oc2ccc(NS(=O)(=O)c3cn(C)cn3)cc2C1=O	1.0
COc1ccc(NC(=O)Nc2ccc3c(c2)C(=O)N([C@@H](C)CO)C[C@@H](C)[C@H](CN(C)C(=O)NC2CCCCC2)OCCCC[C@@H](C)O3)cc1	1.0

# The list continues:
Molecule	A1 apoptosis 2
C[C@H](CO)N1C[C@H](C)[C@@H](CN(C)S(=O)(=O)c2ccccc2)Oc2c(cccc2N(C)C)C1=O	-0.3
C[C@@H]1CN([C@@H](C)CO)C(=O)Cc2cc(NC(=O)CCN3CCOCC3)ccc2O[C@@H]1CN(C)S(C)(=O)=O	0.2
COc1ccc(NC(=O)N(C)C[C@@H]2Oc3ccc(NC(=O)Nc4ccc(C(F)(F)F)cc4)cc3CC(=O)N([C@H](C)CO)C[C@H]2C)cc1	0.2
O=C(NO)c1cccc(C(=O)N/N=C/c2cc(F)ccc2O)c1	-1.6
C[C@H]1CN([C@@H](C)CO)C(=O)c2cc(NS(=O)(=O)c3cn(C)cn3)ccc2O[C@@H]1CN(C)S(=O)(=O)c1ccc(F)cc1	-0.8
COc1ccc(S(=O)(=O)Nc2ccc3c(c2)C(=O)N([C@@H](C)CO)C[C@@H](C)[C@H](CN(C)S(=O)(=O)c2ccccc2)OCCCC[C@H](C)O3)cc1	-0.2
C[C@@H]1CN([C@@H](C)CO)C(=O)c2cc(NC(=O)Cn3cnnn3)ccc2O[C@@H]1CN(C)Cc1ccc(C(F)(F)F)cc1	0.7
C[C@H]1CN([C@@H](C)CO)C(=O)c2cccc(NS(=O)(=O)c3ccc(Cl)cc3)c2O[C@@H]1CN(C)C(=O)Nc1ccc(F)cc1	1.7
O=C(NCc1nc2ccccc2[nH]1)C1=C[C@H](C2CC2)C[C@H](OCc2ccc(CO)cc2)O1	-0.9
C[C@H]1CN([C@@H](C)CO)C(=O)c2cc(NS(=O)(=O)c3ccccc3)ccc2O[C@H]1CN(C)Cc1ccc(Cl)c(Cl)c1	-0.9
C[C@@H]1CN([C@@H](C)CO)C(=O)c2cc(NC(=O)NC3CCCCC3)ccc2O[C@@H](C)CCCCO[C@H]1CN(C)Cc1ccccc1	2.0
CNC[C@H]1OCCCC[C@@H](C)Oc2ccc(NC(=O)c3ccccc3)cc2C(=O)N([C@H](C)CO)C[C@@H]1C	-0.9

# Compound activity as filed in PubChem.
